Vif TR-FRET: inhibitors of Vif binding to APOBEC3G peptide, primary screen, biochemical, TR-FRET, GST-Vif 1-94, biotin-A3G peptide, dose response retest (AID 1117319). Virion infectivity factor (Human immunodeficiency virus type 1 group M subtype B (isolate …. TR-FRET GST-Vif / biotin-A3G peptide binding; higher % means a stronger effect; test concentration not given here; strong numbers were not always called active. one-dose inhibition, %; IC50 in µM for titrated hits. 0.57% of 260,000 active;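 active = above the screen mean plus three standard deviations and confirmed in dose response; inconclusive = results disagree or hit not tested in dose response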;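 also: Vif residues 1-94 fused to GST binding biotinylated APOBEC3G peptide 110-148; 0% = full assay without inhibitor and 100% = GST in place of GST-Vif; retest series ran down from 100 µM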
Ecoli growth: E. coli growth inhibition, primary screen, OD600; AID 1053175, 2014; Escherichia coli growth, 23 h; hits give low values; OD600 absorbance (test concentration not listed); 0.21% of 330,000 active;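 active = OD600 absorbance below the run mean of sample wells minus 3.6 SD, in any replicate, cut at about 0.56 in these data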;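 also: stock transfer was 300 nL into about 60 µL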
HNF4A DNA FP: change in binding of human HNF4A to DNA, primary screen, biochemical, fluorescence polarization, FITC-DNA | 0.3% of 360,000 active | AID 1224865, 2016 | 1 h | Hepatocyte nuclear factor 4-alpha (Homo sapiens), P41235 | activity change, % at 10 µM; in the data active = activity change above about 30%, passing the limit was not always enough;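 also: controls were the assay level and a saturating level of protein; the project sought stronger binding though the title names inhibitors; some compounds called inactive have numbers as strong as hits; positive values seem to mean higher polarization but the record does not say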
Target sequence (P41235 whole entry, looked up): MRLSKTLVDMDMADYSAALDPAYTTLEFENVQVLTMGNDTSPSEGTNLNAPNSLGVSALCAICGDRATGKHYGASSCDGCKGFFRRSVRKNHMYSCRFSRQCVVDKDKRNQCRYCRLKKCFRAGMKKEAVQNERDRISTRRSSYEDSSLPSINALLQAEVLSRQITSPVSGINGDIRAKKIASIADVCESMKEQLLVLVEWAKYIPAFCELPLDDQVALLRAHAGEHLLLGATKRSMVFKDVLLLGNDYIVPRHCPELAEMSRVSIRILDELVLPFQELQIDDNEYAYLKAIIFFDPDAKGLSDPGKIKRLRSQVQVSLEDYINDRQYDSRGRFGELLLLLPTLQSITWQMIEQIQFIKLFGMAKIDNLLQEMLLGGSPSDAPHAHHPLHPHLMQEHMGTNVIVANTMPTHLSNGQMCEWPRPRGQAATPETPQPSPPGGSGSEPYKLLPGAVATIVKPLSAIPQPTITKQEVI
ALR H2O2 inh: inhibitors of human ALR sulfhydryl oxidase, primary screen, biochemical, H2O2 detection, HRP-luminol luminescence, single point | 3.8% of 290,000 active | FAD-linked sulfhydryl oxidase ALR (Homo sapiens), P55789 | purified ALR, DTT oxidation | inhibition, % (concentration not given with the values);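 active = mean and each replicate at 75% or more; inconclusive = only one of the two met; inactive = neither met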;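 also: stock transfer was 7.5 nL into about 7.5 µL; 0% = neutral wells and 100% = wells with inactivated enzyme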
Target sequence (P55789 whole entry, looked up): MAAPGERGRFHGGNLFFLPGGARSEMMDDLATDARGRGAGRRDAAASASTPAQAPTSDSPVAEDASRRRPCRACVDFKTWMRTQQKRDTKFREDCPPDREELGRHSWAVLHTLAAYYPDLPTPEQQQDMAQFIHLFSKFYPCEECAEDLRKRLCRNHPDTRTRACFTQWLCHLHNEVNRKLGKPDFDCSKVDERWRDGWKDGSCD
rRNA inh HTS: reduced GFP signal of wild-type E. coli, primary screen, bacterial rRNA inhibitor project, GFP/RFP fluorescence, OD600, single point; GFP signal change (wild-type ribosome), % (test concentration not listed); E. coli WT GFP vs humanized-ribosome RFP mutants, 24 h; hits give low values; DMSO median 0, no signal -100; 1.6% of 350,000 active; AID 720706, 2013;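 active = significant combined selectivity score with lowered wild-type GFP, culture density cut under 30%, mutant RFP and density less affected; inactive = any of these conditions unmet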; also: one replicate is shown; some compounds called inactive have numbers as strong as hits
MLL AF4-AF9 inh: inhibitors of AF4 peptide binding to AF9, primary screen, biochemical, AlphaScreen, biotin-AF4 peptide, FLAG-AF9, single point. Protein AF-9 (Homo sapiens), P42568. 0.47% of 350,000 active. AID 651704, 2012. inhibition, % at 10 µM;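 active = every replicate reaching a set inhibition limit, whatever the replicate mean, cut at about 25% in these data; inconclusive = mean inhibition reaches that limit but some replicates miss it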;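 also: 0% = plate neutral control median and 100% = total signal loss; the record names both 10 and 1 µM as test concentration; the first replicate is given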
FGF22 binding: binders of human FGF22 protein, primary screen, FGF22 synaptogenesis inhibitor project, biophysical, thermal shift, single point. 1.5% of 340,000 active. AID 651658, 2012. Fibroblast growth factor 22 (Homo sapiens), Q9HCT0. recombinant FGF22 thermal shift, SYPRO orange fluorescence; percent of sucrose octasulfate shift, DMSO zero. calls only at 9.99 µM;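 active = melting point raised past a set limit in the mean and every replicate; inconclusive = no clear call; three in four hits are not shown here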
Target sequence (Q9HCT0 whole entry, looked up): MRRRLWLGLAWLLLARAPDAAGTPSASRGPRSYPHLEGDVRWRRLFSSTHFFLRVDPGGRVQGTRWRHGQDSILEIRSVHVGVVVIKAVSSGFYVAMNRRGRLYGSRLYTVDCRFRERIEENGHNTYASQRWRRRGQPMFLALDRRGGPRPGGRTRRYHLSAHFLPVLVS
rRNA inh HTS OD600: second read-out of rRNA inh HTS, no call of its own (marks repeat the call); OD600 change, %; measured here: OD600 growth;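 optical density of the mix in the first replicate; 0 = DMSO median and -100 = no signal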
rRNA inh HTS RFP: recorded beside rRNA inh HTS, whose call it bears; RFP signal change, %; measured here: RFP humanized mutant strains;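 first replicate; 0 = DMSO median and -100 = no signal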
* = called active by the depositor; i = inactive; ? = inconclusive; . = not tested or not shown. Not all compounds are listed. The share of hits here may be higher or lower than overall.

molecule | FGF22 binding | MLL AF4-AF9 inh | HNF4A DNA FP | rRNA inh HTS OD600 | rRNA inh HTS RFP | Ecoli growth | Vif TR-FRET | ALR H2O2 inh | rRNA inh HTS
C=CCN(c1ccccc1OC)S(=O)(=O)c1cccc(C(=O)OCC(=O)c2c(N)n(C)c(=O)n(C)c2=O)c1 | i | 1.9 | -2.3 | -9.7* | 3.9* | 0.69 | . | . | -19*
C#Cc1cccc(-n2nnc(C(C)=O)c2C)c1 | i | . | 1.8 | 1 | -2.7 | 0.63 | 11% | -15 | -2
CCC(=O)c1cc2c(cc1NC(=O)c1ccc(C)cc1)OCCO2 | . | . | -0.8 | . | . | 0.75 | 15% | -1 | .
CCC(=O)Nc1ccc2c(c1)OC[C@@H](C)N(C(=O)NC(C)C)C[C@@H](C)[C@@H](OC)CN(C)C2=O | i | -0.6 | . | 2 | -1.7 | . | . | . | 0
O=C(CSc1nnc(-c2cccs2)o1)Nc1cccc(S(=O)(=O)N2CCCCC2)c1 | . | . | 3.3 | . | . | 0.7 | . | -15 | .
C[C@H](CO)N1C[C@H](C)[C@H](CN(C)C(=O)Nc2ccccc2)Oc2ccc(NC(=O)Cn3cnnn3)cc2CC1=O | i | -3.1 | . | 12 | -1.1 | . | . | . | 5
CCOC(=O)N1CCN(c2c(NCc3ccc(Cl)cc3)c(=O)c2=O)CC1 | i | -2.9 | -2.8 | 2 | -3.0 | 0.71 | -3% | -6 | -3
COc1ccc(C2N=C(c3ccccc3)NC(c3ccccc3)=N2)cc1 | . | . | 2.6 | . | . | 0.68 | -1% | -44 | .
O=C(Nc1ccc(Cl)cc1Cl)c1cccc(N2C(=O)C=CC2=O)c1 | i | . | 0.7 | . | . | 0.7 | . | 9 | .
Cc1cc(C)c2cc(CN(Cc3cccnc3)C(=O)c3ccc(F)cc3)c(Cl)nc2c1 | i | -2.7 | -1.4 | -38 | -8.7 | 0.66 | 8% | 0 | -43
Fc1ccc(NCc2nnc3n2CCCCC3)cc1 | i | -4.1 | -0.2 | 12 | 0.0 | 0.69 | -5% | 19 | 2
CCOc1ccc(CNC(=O)c2ccccc2NC(=O)C2=CSCCO2)cc1 | i | 2.1 | 0.6 | 0 | 0.2 | 0.7 | . | 5 | 2
CC(C)NC(=O)Nc1ccc2c(c1)C(=O)N([C@H](C)CO)C[C@@H](C)[C@H](CN(C)C(=O)Nc1ccc(C(F)(F)F)cc1)O2 | i | -2.6 | . | 8 | -5.6 | . | . | . | -4
CCN(CC)CC(=O)N1CCCC(N2CCN(c3cccc(C(F)(F)F)c3)CC2)C1 (centres undefined) | i | -6.8 | -0.6 | 11 | 0.6 | 0.66 | . | 1 | 11
COc1ccc(NC(=S)NNS(=O)(=O)c2ccc3ccccc3c2)c(OC)c1 | . | -4.0 | -3.3 | -2 | -0.3 | 0.73 | -8% | -16 | -6
CN(CC(=O)NCc1ccc(F)cc1)S(=O)(=O)c1ccc2c(c1)c(=O)n(C)c(=O)n2C | i | -3.2 | -1.3 | 9 | -3.2 | 0.67 | . | -10 | 2
CCSc1ccc(-c2ccco2)nn1 | . | -1.3 | -0.6 | 3 | 1.8 | 0.69 | -6% | 9 | 10
C[C@@H]1CN([C@H](C)CO)C(=O)c2c(c3ccccc3n2C)-c2ccccc2CO[C@@H]1CN(C)C(=O)[C@H](Cc1ccccc1)N(C)C | i | 7.4 | . | 2 | -1.0 | . | . | . | 3
COCC#Cc1ccc2c(c1)O[C@@H](CN(C)C(=O)C1CCCCC1)[C@H](C)CN([C@H](C)CO)S2(=O)=O | i | -0.8 | . | -8 | -1.7 | . | . | . | -5
Cc1nn(CCOc2ccccc2)c(=O)n1-c1c(F)cccc1F | . | . | 2.1 | 7 | -1.9 | 0.66 | 1% | -5 | -2
O=C(Nc1ccc(NC(=S)NC(=O)c2ccccc2Cl)cc1)c1cccc(Cl)c1 | . | . | 2.9 | . | . | . | 1% | -6 | .
CC1(C)CC2CC(C)(CN2C(=O)COC(=O)c2cccc(O)c2)C1 (centres undefined) | i | 1.5 | -6.0 | 6 | 0.7 | 0.7 | -11% | 1 | 3
CCOC(=O)c1c(NC(=O)COC(=O)CC(NC(C)=O)c2ccccc2)sc(C(=O)NC)c1C (centres undefined) | . | 2.0 | 1.6 | -2 | 0.2 | . | . | 2 | -2
O=C(CCC(F)(F)F)N1CCCC(CO)(CCc2ccccc2)C1 (centres undefined) | i | 1.9 | 3.4 | 4 | 8.8 | 0.69 | -8% | -8 | 13
CCCCNC(=O)c1cc(C)nc2ccccc12 | i | -0.5 | 3.4 | 8 | 0.0 | 0.68 | -3% | -3 | 6
CC1CCCC(C)N1CCCNC(=O)c1cc2c(s1)-c1ccccc1OC2 (centres undefined) | i | 3.9 | -3.2 | 2 | 2.0 | . | . | -15 | 0
CCOc1ccc2c(c1)C(=NNC(=O)c1ccccn1)c1cc(OCC)ccc1-2 | i | 2.1 | -7.9 | 10 | 3.8 | 0.71 | . | . | 4
CN(C)S(=O)(=O)c1cccc(NC(=O)CSc2nncn2-c2ccccc2)c1 | i | -3.8 | -4.1 | 8 | -2.5 | 0.71 | 2% | -3 | 12
COc1cccc(-c2cc(N)nn2C(=O)Nc2ccc(Cl)cc2)c1 | i | 4.9 | -4.3 | -78 | -27 | 0.66 | 0% | 100* | -33
CC(Nc1nc(-c2cccnc2)nc2ccccc12)c1ccc(F)cc1 (centres undefined) | i | 2.5 | 4.7 | -75 | -15 | 0.67 | 7% | 2 | -50
COc1ccc(OC)c(Cc2nnc(CCC(=O)N3CCCCC3)o2)c1 | i | 3.8 | -2.6 | 14 | 1.2 | 0.66 | -8% | -2 | 23
CCc1nc(SCC(=O)N2CCCC2)c2ccccc2n1 | . | -5.6 | -3.2 | 0 | -3.5 | 0.71 | 14% | 92* | 2
CCCN1CCc2c(sc3nc(SC)n(-c4ccccc4)c(=O)c23)C1 | i | 8.5 | 2.6 | -7 | -0.9 | 0.68 | 5% | -21 | -6
C[C@H]1CN([C@@H](C)CO)C(=O)Cc2cc(NC(=O)Cc3cn(C)c4ccccc34)ccc2O[C@@H]1CN(C)Cc1ccc(-c2ccccc2)cc1 | i | 1.0 | . | 1 | 4.4 | . | . | . | 2
CCOC(=O)N1CCN(C(=O)c2cn(CC)c3ccc(S(=O)(=O)N4CC(C)CC(C)C4)cc3c2=O)CC1 (centres undefined) | i | -2.1 | -3.4 | 2 | -0.3 | 0.71 | 2% | 0 | 0
COc1ccc2c(CC(=O)Nc3ccc(OC)c(S(=O)(=O)N4CCOCC4)c3)coc2c1 | i | -1.3 | 0.5 | -15 | 3.0 | 0.7 | 2% | . | -15
CCOC(=O)C1CCCN(C(=O)Cc2ccc(OC)c(OC)c2)C1 (centres undefined) | . | . | 3.1 | . | . | 0.74 | -2% | . | .
COCC(=O)Oc1c(S(=O)(=O)c2ccc(C)cc2)c(C)nn1C(C)(C)C | i | 0.2 | 4.1 | 5 | -0.3 | 0.68 | 6% | -17 | 6
CN1C(=O)c2cc(NC(=O)C3CCOCC3)ccc2OC[C@H]2O[C@H](CC(=O)NCc3ccc4c(c3)OCO4)CC[C@@H]21 | i | 2.7 | . | 1 | -1.3 | . | . | . | 2
CC(C)C[C@H]1CN([C@@H](Cc2ccc(O)cc2)CN2CCCC2CN2C(=S)NC[C@@H]2Cc2ccccc2)C(=S)N1CC1CCCCC1 (some centres undefined) | i | 1.5 | -0.7 | -5 | 26 | . | . | . | 9
CN(C)c1nc(C#N)nc(N(C)C)n1 | i | -1.4 | 0.4 | 4 | -0.9 | 0.69 | . | -2 | 4
COc1ccc(Nc2nc(NCc3ccco3)nc(N/N=C/c3ccccc3)n2)cc1 | . | . | -2.0 | . | . | . | -2% | -2 | .
Cc1ccc(N=CC=C2OC(C)(C)C(C)(C)O2)cc1 | i | -3.7 | 3.9 | 7 | 2.4 | . | 6% | -1 | 2
Clc1ccc(-c2nnn(Cc3nc4ccccc4s3)n2)cc1 | . | . | 6.5 | . | . | 0.73 | -7% | . | .
COCCN(CCOC)C(=O)CC(=O)N(CCOC)CCOC | . | . | 0.7 | . | . | 0.73 | -1% | -6 | .
CC(=O)NC(CC(=O)NNC(=O)c1cccs1)c1ccccc1 (centres undefined) | i | 0.7 | -3.3 | 9 | -0.2 | 0.69 | -10% | -1 | 19
O=C(O)c1ccc2c(c1)C(=O)N(c1cccc3ccccc13)C2=O | i | -22 | -0.8 | -17 | -2.2 | 0.67 | -8% | 0 | -10
Cc1c(NC(=O)C(C)OC(=O)c2c3c(nc4ccccc24)CCC3)c(=O)n(-c2ccccc2)n1C (centres undefined) | i | 12 | -4.5 | 7 | -2.7 | 0.69 | ? | . | 8
COc1ccc(CN2CCNC(=O)C2CC(=O)N(C)CC2CCOCC2)c(F)c1 (centres undefined) | i | -1.1 | -3.0 | 11 | -0.9 | 0.73 | 8% | -8 | 7
CC(=O)Nc1ccc2c(c1)C(=O)N(C)[C@H]1CC[C@H](CC(=O)NCc3ccccc3)O[C@@H]1CO2 | i | -1.2 | . | -2 | 0.8 | . | . | . | 4

Next results follow.
molecule | FGF22 binding | MLL AF4-AF9 inh | HNF4A DNA FP | rRNA inh HTS OD600 | rRNA inh HTS RFP | Ecoli growth | Vif TR-FRET | ALR H2O2 inh | rRNA inh HTS
CCc1ccc2[nH]c(=O)c(CN(CCCN3CCOCC3)C(=O)Nc3ccc(F)cc3)cc2c1 | . | . | 1.2 | . | . | 0.69 | -1% | -37 | .
Clc1cccc2sc(N3CCOCC3)nc12 | . | . | -2.4 | . | . | 0.68 | 0% | -18 | .
COc1ccc(N2CCN(C3CC(=O)N(C)C3=O)CC2)cc1 (centres undefined) | . | . | -0.3 | . | . | 0.76 | 0% | 45 | .
CC1(C)N=C(c2ccc(Cl)cc2)C(=O)N1 | i | -19 | -0.3 | -2 | -6.3 | 0.69 | -1% | -2 | 7
CC(=O)N(C)C1=C(O)c2ccccc2C(=O)C1=O | . | . | -1.5 | . | . | 0.67 | -4% | -15 | .
Cc1cccc(-c2nc3c(c(SCC(=O)N4CCOCC4)n2)COC(C)(C)C3)c1 | i | 1.2 | 3.1 | 2 | -2.1 | 0.67 | . | -1 | -1
CCC(C)NC(=O)c1ccc(NS(=O)(=O)c2ccc3[nH]c(=O)[nH]c3c2)cc1 (centres undefined) | i | 0.6 | 2.1 | 8 | -0.1 | 0.7 | . | -1 | 6
CCO[C@@H]1OC(C(=O)NC2CC2)=C[C@H](c2ccc(Br)cc2)[C@H]1CCCO | i | 1.2 | 3.9 | 5 | -0.4 | . | -13% | 1 | 4
CN(C)S(=O)(=O)c1cccc(C(=O)OCC(=O)NCc2ccccc2)c1 | . | . | 2.8 | . | . | 0.66 | -2% | -3 | .

Screening data from PubChem.
